High-throughput results (PubChem)
PK Bst – alters activity of Bacillus stearothermophilus pyruvate kinase. partly purified Bacillus stearothermophilus pyruvate kinase, luminescence ATP production; ribose 5-phosphate activator present at AC10. Potency, µM. 51,000 tested, 1.2% active. AID 361; in the data active means potency below about 11 µM; inconclusive means mostly about 12 µM to 25 µM; inactive means weaker than that;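 the screen sought inhibitors and activators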;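 also: potency is read from the fitted curve at half-maximal effect; scaled between full activation by ribose 5 phosphate and full inhibition by luteolin; about four in five hits inhibit and the cells do not say which; series up to 57 µM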
TsaE inh – inhibitors of E. coli YjeE (TsaE); purified YjeE, fluorescence polarisation of a bound ADP probe; 71,000 tested, 0.05% active; AID 605; Potency, µM; P0AF67; active = well fitted falling curve; inconclusive = weaker or top-dose-only fall, or a rising curve; inactive = flat or poorly fitted curve;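 also: top concentration of the series not given in the record; excess ADP was the control for the full effect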
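Fluorescence polarization of a BODIPY Texas Red–ADP probe (2 uM) bound to purified YjeE (10 uM) was read after 15 min room-temperature incubation with compounds. Loss of polarization marks inhibitors; ADP serves as titrated control.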
Numbers without * were called inactive; i = inactive; ? = inconclusive; . = not tested or not shown. Some of the compounds tested (hit frequency here may not be typical).

Sample of the layout:
nr	molecule	PK Bst	TsaE inh
1	CCCCC(c1nnnn1CCOC)N1CCN(C(=O)c2ccco2)CC1 (stereo not given)	>57	i
2	CC1CN(C2CCN(S(=O)(=O)c3ccccc3)CC2)CC(C)O1 (stereo not given)	>11	.
3	COc1ccc(C2(O)CCN(Cc3nnnn3Cc3ccc(F)cc3)CC2)cc1	>57	i
4	COc1cccc(N)c1	.	i

The listing, repeating the preview:
nr	molecule	PK Bst	TsaE inh
1	CCCCC(c1nnnn1CCOC)N1CCN(C(=O)c2ccco2)CC1 (stereo not given)	>57	i
2	CC1CN(C2CCN(S(=O)(=O)c3ccccc3)CC2)CC(C)O1 (stereo not given)	>11	.
3	COc1ccc(C2(O)CCN(Cc3nnnn3Cc3ccc(F)cc3)CC2)cc1	>57	i
4	COc1cccc(N)c1	.	i
5	COc1ccc(-c2nnn(Cc3nn[nH]n3)n2)cc1OC	>57	i
6	COc1cc(C(=O)Nc2ccncc2)cc(OC)c1OC	>57	i
7	Nc1nonc1-c1noc(N2CCCCC2)n1	>57	i
8	CCOC(=O)C1=C(C)NC(=O)N(C(C)=O)C1c1ccc(Cl)cc1 (stereo not given)	.	i
9	CN1CCN(C(=O)C23CC4CC(CC(C4)C2)C3)CC1	.	i
10	O=C(O)c1ccccc1[N+](=O)[O-]	.	i
11	O=C(Cc1c(F)cccc1Cl)Nc1cccnc1	>57	i
12	O=C(CCCN1C(=O)c2ccccc2C1=O)Nc1ccc(S(=O)(=O)N2CCOCC2)cc1	>57	i
13	COCCn1c(SCC(=O)OCc2ccccc2)nc2c1c(=O)[nH]c(=O)n2C	.	i
14	O=C(O)c1ccc(Cl)cc1Cl	.	i
15	CNc1nc(-c2cccnc2)nc2ccccc12	.	i
16	CCNc1nc(SC(C)C(=O)OC)nc(N2CCOCC2)n1 (stereo not given)	>57	i
17	CS(=O)(=O)Nc1cccc(-c2nccc(NCc3ccccc3)n2)c1	.	i
18	COc1ccc(CC(C)N2CCN(c3ccccc3OC)CC2)cc1OC (stereo not given)	.	i
19	Cc1ccc2nc(NC3=NCN(CCN4CCOCC4)CN3)nc(C)c2c1	.	i
20	CN1CCC(OC(=O)C23CCC(C)(C(=O)O2)C3(C)C)CC1 (stereo not given)	>57	i
21	Nc1ccc(-c2nc3c(Cl)cc(N)cc3[nH]2)cc1	i	i
22	O=C(CN1C(=O)NC2NC(=O)NC21)NC1CCCCC1 (stereo not given)	>57	i
23	CCCSCCCNC(=O)c1cc2c(s1)CS(=O)(=O)C2	>11	i
24	O=C(Nc1ccccc1)c1ccc(NCCN2CCOCC2)c(S(=O)(=O)N2CCOCC2)c1	>57	i
25	CCOC(=O)COc1ccc(C2NC(C(=O)O)CS2)cc1 (stereo not given)	>57	i
26	Cc1c(C(=O)N(Cc2cccs2)C2CCS(=O)(=O)C2)oc2ccccc12 (stereo not given)	>57	i
27	COc1cc(N)cc(NC(=O)c2ccncc2)c1	>57	i
28	O=C(CSc1nnc(Cc2cc(=O)[nH]c(=O)[nH]2)n1-c1ccccc1)NCC1CCCO1 (stereo not given)	>57	i
29	C=CCOc1cccc(C2/C(=C(/O)c3ccccc3)C(=O)C(=O)N2CCCN2CCOCC2)c1 (stereo not given)	>57	i
30	Cc1cccn2c(=O)c3cc(C(=O)NCCCn4ccnc4)n(C)c3nc12	.	i
31	Nc1nc(SCc2ccccn2)c2ncn(C3CCCC3)c2n1	.	i
32	Cc1ccc(SCCNC(=O)CN(c2ccc3c(c2)OCO3)S(C)(=O)=O)cc1	>57	i
33	CC(=O)c1ccc(Nc2nc(C)nc3c2oc2ccccc23)cc1	>57	i
34	CC(C)OC(=O)C1C(=O)CC(C)(O)C(C(=O)OC(C)C)C1c1cccnc1 (stereo not given)	>57	i
35	CCCN(Cc1cc2cc(OC)ccc2[nH]c1=O)C(=O)c1ccncc1	>57	i
36	Cc1nc2c(-c3ccc(F)cc3)c(C)nn2c(N2CCOCC2)c1C	>57	i
37	CN1CCCC2(CCN(C(=O)c3cc(C(F)(F)F)cc(C(F)(F)F)c3)CC2)C1	.	i
38	COc1cccc(N2CCN(C(=O)C3C4C=CC5(CN(Cc6ccccc6Cl)C(=O)C35)O4)CC2)c1 (stereo not given)	>11	i
39	O=C(c1cccnc1NCc1ccccc1)N1CCOCC1	>57	i
40	Cc1nc(N2CCCCC2)c2sc(=S)n(C)c2n1	.	i
41	O=C(C1CCCN(S(=O)(=O)c2cnc[nH]2)C1)N1CCN(c2ccc(Cl)cc2)CC1 (stereo not given)	.	i
42	CCOc1ccc(N(CC(=O)N2CCCC2)S(=O)(=O)c2c(C)noc2C)cc1	.	i
43	Cc1cc(Cl)cc(Cl)c1OCC(=O)NCc1ccco1	.	i
44	CN(C)c1ccc(NC(=O)c2ccncc2)c2ccccc12	>57	i
45	O=c1c(-c2ccccc2)nc2cnc(Oc3cccc(Cl)c3)nc2n1C1CC1	.	i
46	CCCCOC(=O)Nc1ccc(N2CCOCC2)cc1	.	i
47	COc1cc(NC(=O)CCN2CCN(Cc3ccccc3)CC2)cc(OC)c1	.	i
48	CCCC(=O)Nc1ccc(C(=O)N2CCCC2)cc1	>57	i
49	Cc1nnc(SCC(=O)Nc2cccc(C(F)(F)F)c2)n1Cc1ccco1	>57	i
50	Cc1cccnc1NC(=O)Nc1cccc(C(F)(F)F)c1	>57	i

Carrying on.
nr	molecule	PK Bst	TsaE inh
51	O=C(COc1ccc(Cl)cc1)Nc1ccccc1N1CCOCC1	>57	i
52	COc1ccc(N2C(=O)C3CCCN3C2c2ccccc2F)cc1 (stereo not given)	.	i
53	c1cc2c(cc1-c1cnc3n1CCC3)OCCO2	.	i
54	O=C(Cc1ccc(F)cc1)N(c1ccc(F)cc1)C1C=CS(=O)(=O)C1 (stereo not given)	>57	i
55	Cc1ccc(C)c(C(=O)c2c(C)nc3sccn23)c1	>57	i
56	Cc1ccc2nsnc2c1S(=O)(=O)N(Cc1cc2cccc(C)c2[nH]c1=O)CC1CCCO1 (stereo not given)	>57	i
57	Cn1nnc(NC(=O)CSc2ncn[nH]2)n1	>57	i
58	Cc1ccc2nc(SCC(=O)NCC3CCCO3)c(C#N)cc2c1 (stereo not given)	>57	i
59	COC(=O)c1cc(OC)c(OC)cc1NC(=O)CN1CCCCC1	>57	i
60	COc1ccc(Cl)cc1NC(=O)CSc1nncn1-c1cccnc1	>57	i
61	Cc1nnc(N2CCc3ccccc3C2)[nH]c1=O	>57	i
62	O=C(c1ccco1)N1CCN(S(=O)(=O)c2cccc(C(F)(F)F)c2)CC1	>11	i
63	NNC(=O)[C@@H](O)[C@H](O)[C@H](O)CO	.	i
64	N#CCSc1nc2sc3c(c2c(=O)n1C1CCCCC1)CCCC3	>26	.
65	CN(C)S(=O)(=O)c1cc(C(=O)NCCCn2ccc3ccccc32)ccc1Cl	>57	i
66	CC(C)[C@@H](CC(=O)N[C@@H]1CCCC[C@H]1C(=O)N[C@H](CC(=O)N[C@@H](CCC(=O)O)CC(=O)O)Cc1ccccc1)NC(=O)C[C@H](Cc1c[nH]c2ccccc12)NC(=O)[C@@H]1CCCC[C@H]1N	.	i
67	CCC(C)n1[nH]c(=O)cc1N (stereo not given)	>57	i
68	CCCCCCCCN	.	i
69	CCOC(=O)N1CCN(C(=O)c2ccc(CS(=O)(=O)c3ccc(OC)cc3)o2)CC1	.	i
70	O=C1C(c2[nH]c3ccccc3c2O)=Nc2ccccc21	.	i
71	CC(=O)NCCNc1nc(-c2ccc(N(C)C)cc2)nc2ccccc12	.	i
72	Cc1c(N=C/C=C2\N(C)c3ccccc3C2(C)C)c(=O)n(-c2ccccc2)n1C	>57	i
73	O=C(C1CSC2(c3ccc(F)cc3)CCC(=O)N12)N1CCCCCC1 (stereo not given)	>57	i
74	CCOC(=O)c1cc(-c2ccccc2)sc1NC(=O)C(C)Sc1nnnn1C (stereo not given)	>57	i
75	N#CC1=C(SCc2ccccc2)NC(=O)C(C#N)C12CCCC2 (stereo not given)	>57	i
76	CCN(C(=O)CSc1ncn[nH]1)c1cccc2ccccc12	?	i
77	O=c1c(-c2cccs2)nc2cnc(Nc3ccccc3)nc2n1C[C@H]1CCCO1	.	i
78	CC1=CCC(C(C)(C)NC(=O)c2ccccc2)C/C1=N\O (stereo not given)	.	i
79	Cc1ccc(NC(=O)N2CCC(C(=O)NCC(C)C)CC2)cc1	>57	i
80	O=S(=O)(NCCNS(=O)(=O)c1ccccc1)c1ccccc1	.	i
81	CCOC(=O)c1c(C)c(C(=O)NCCc2ccc(S(N)(=O)=O)cc2)c(C)n1CC	>57	i
82	CCN(CC)CCNC(=O)CCCCn1c(=S)[nH]c2c([nH]c3ccc(OC)cc32)c1=O	.	i
83	CCS(=O)(=O)N1CCC(C(=O)NCc2cccs2)CC1	>57	i
84	CCCn1c(C)cc(C(=O)CN2C(=O)c3ccccc3C2=O)c1C	.	i
85	Cc1c(NS(=O)(=O)N2CCCC2)c(=O)n(-c2ccccc2)n1C	>57	i
86	Cc1ccc(Cn2ccc(NC(=O)c3cc(-c4ccc5c(c4)OCO5)on3)n2)cc1	>57	i
87	COC(=O)c1ccc(C(NC(=O)OCc2ccccc2)/C(=C/[C@@H](C)C(=O)Nc2ccccc2)c2cccnc2)cc1 (stereo not given in full)	.	i
88	COc1ccc(/C=N/n2cnnc2SCc2ccccc2)cc1	.	i
89	CC1=C(C(=O)OCC(C)C)C(c2ccc(F)cc2)NC(=O)N1 (stereo not given)	.	i
90	Cc1cc(OCC(=O)N2CCOCC2)cc2oc(=O)c3ccccc3c12	.	i
91	O=C(c1cnccn1)N1CCC2(CC1)CCN(c1cccc(-c3ccccc3)c1)CC2	.	i
92	C#CCn1c(=NC(=O)CSCC(=O)N2CCOCC2)sc2ccccc21	>57	i
93	CO[C@H]1[C@H](O[C@H]2O[C@@H](C)[C@@H](O[C@@H]3C[C@](C)(O)[C@H](OC(=O)CC(C)C)[C@H](C)O3)[C@@H](N(C)C)[C@@H]2O)[C@@H](CC=O)C[C@@H](C)[C@@H](O)/C=C\C=C/C[C@@H](C)OC(=O)C[C@H]1OC(C)=O	.	i
94	CCOC(=O)C1=C(C)NC2=C(C(=O)CCC2)C1c1cc(OC)ccc1OC (stereo not given)	.	i
95	CCNC(=O)CN(c1ccc(CC)cc1)S(C)(=O)=O	.	i
96	Cc1ccc(S(=O)(=O)Cn2nnnc2C(CC(C)C)N2CCN(C(=O)c3ccco3)CC2)cc1 (stereo not given)	>57	i
97	Cc1nc(NC(=O)c2ccco2)sc1C(=O)Nc1ccc(Br)cc1	>57	i
98	COc1ccc(C(=O)N2CCC3(CCN(Cc4ccc(C#N)cc4)CC3)CC2)cc1	.	i
99	CCOC(=O)N1CCN(c2ncnc3c2[nH]c2ccc(OC)cc23)CC1	>26	.
100	CCOC(=O)c1ccc(NC(=O)c2ccc(NS(C)(=O)=O)cc2)cc1	>57	i

(next part)
nr	molecule	PK Bst	TsaE inh
101	CC1CCCCC1NC(=O)CSc1nnc(-c2ccccc2)n1N (stereo not given)	>57	i
102	CC(C)c1nnc(NC(=O)c2cccs2)s1	.	i
103	CCCCCCN(C(=O)CCCCCN1C(=O)NC(c2ccc(-c3ccccc3)cc2)C(C(=O)OCc2ccccc2)=C1C)C(C(=O)NCCCC)c1ccc(OCC(=O)OC)c(C(=O)OC)c1 (stereo not given)	.	i
104	Cc1noc(C)c1COC(=O)C1COc2ccccc2O1 (stereo not given)	>57	i
105	Cc1ccc(OCC(=O)Nc2cccc(-c3nnc(-c4ccccc4)o3)c2)cc1	>57	i
106	O=C1C2C3C=CC(C3)C2C(=O)N1c1ncn[nH]1 (stereo not given)	>57	i
107	OC(c1ccccc1)C1CN(Cc2ccccc2)CCC1(O)c1ccccc1 (stereo not given)	>57	i
108	O=C(COc1ccc(Cl)cc1Cl)N1CCCCCC1	.	i
109	O=C1C2C3c4ccccc4C(c4ccccc43)C2C(=O)N1CN1CCOCC1 (stereo not given)	>57	i
110	N#Cc1cc2c(nc1SCc1cccnc1)CCCCC2	>57	i
111	Cc1ccc(CCNC(=O)CN2C(=O)COc3ccccc32)cc1	>57	i
112	CC(=O)NS(=O)(=O)c1ccc(NC(=O)CCC2CCCC2)cc1	>11	i
113	Cc1cc(C(=O)CSc2nc3ccccc3c(=O)n2C)c(C)n1Cc1ccc2c(c1)OCO2	>57	i
114	COC(=O)c1cc(-c2ccc3c(c2)OCO3)nc2ccccc12	.	i
115	CCCCNC(=O)Cn1cnc2sc(C(=O)OCC)c(C)c2c1=O	>57	i
116	O=C(Nc1ccc(N2CCOCC2)cc1)c1ccc(S(=O)(=O)N2CCCCC2)cc1	.	i
117	Clc1ccc(/C=C\c2nc(Cl)c(-c3ccc(Cl)cc3)c(Cl)n2)cc1	.	i
118	CCC(C(=O)NC1CCCC1)N(C(=O)Cn1nnc(-c2ccc(C)o2)n1)c1cnc2ccccc2c1 (stereo not given)	>57	i
119	Cc1ccc(NCc2nc3ccccc3n2C)cc1	?	i
120	COC(=O)c1ccc(NS(=O)(=O)N(C)C)cc1	>57	i
121	CCCC[C@@H]1C[C@H]1C(NC(=O)c1cccs1)c1ccccc1C(F)(F)F (stereo not given in full)	.	i
122	Clc1ccc2nc(SCc3nnc(-c4ccccc4)o3)[nH]c2c1	>57	i
123	COc1cccc(Cn2c(=O)c(-c3cc(F)cc(F)c3)nc3cnc(N(C)C)nc32)c1	.	i
